E coli growth: E. coli growth inhibition, primary screen, OD600. actives 0.21% (n = 330,000). OD600 absorbance (test concentration not listed). AID 1053175, 2014. Escherichia coli growth, 23 h; active compounds read low;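 active = OD600 absorbance below the run mean of sample wells minus 3.6 SD, in any replicate, cut at about 0.56 in these data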;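 note: stock transfer was 300 nL into about 60 µL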
Vif A3G: inhibitors of Vif binding to APOBEC3G peptide, primary screen, biochemical, TR-FRET, GST-Vif 1-94, biotin-A3G peptide, dose response retest (AID 1117319); Virion infectivity factor (Human immunodeficiency virus type 1 group M subtype B (isolate …; TR-FRET GST-Vif / biotin-A3G peptide binding; higher % means a stronger effect; test concentration not given here; strong numbers were not always called active; one-dose inhibition, %; IC50 in µM for titrated hits; actives 0.57% (n = 260,000);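 active = above the screen mean plus three standard deviations and confirmed in dose response; inconclusive = results disagree or hit not tested in dose response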;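 note: Vif residues 1-94 fused to GST binding biotinylated APOBEC3G peptide 110-148; 0% = full assay without inhibitor and 100% = GST in place of GST-Vif; retest series ran down from 100 µM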
RanGTP-Imp inh: inhibitors of RanGTP-importin-beta interaction, primary screen, biochemical, FRET, CFP-Ran, YFP-importin-beta, homogeneous; actives 1.1% (n = 300,000); Ran GTPase (GTP-bound) - importin-beta complex; cell-free CFP-Ran/YFP-importin-beta FRET ratio; inhibition, % (no concentration beside the values); AID 2216, 2009;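 active = most replicates above 15%; inconclusive = exactly half above 15%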;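 note: 0% = DMSO wells and 100% = Ran loaded with GDP instead of GTP; wells of about 40 µL received 100 nL stock; the first replicate is given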
UCH37 inh: inhibitors of human UCH37 deubiquitinase, primary screen, biochemical, Ub-AMC cleavage, fluorescence; actives 0.33% (n = 330,000); purified proteasome/UCH37; inhibition, % (no concentration beside the values); AID 588478, 2011;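 active = mean of two replicates above 20%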;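 note: 0% = compound-free wells with enzyme and 100% = wells lacking proteasome; stock transfer was 100 nL into about 20 µL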
Target sequence (Q9Y5K5 whole entry, looked up): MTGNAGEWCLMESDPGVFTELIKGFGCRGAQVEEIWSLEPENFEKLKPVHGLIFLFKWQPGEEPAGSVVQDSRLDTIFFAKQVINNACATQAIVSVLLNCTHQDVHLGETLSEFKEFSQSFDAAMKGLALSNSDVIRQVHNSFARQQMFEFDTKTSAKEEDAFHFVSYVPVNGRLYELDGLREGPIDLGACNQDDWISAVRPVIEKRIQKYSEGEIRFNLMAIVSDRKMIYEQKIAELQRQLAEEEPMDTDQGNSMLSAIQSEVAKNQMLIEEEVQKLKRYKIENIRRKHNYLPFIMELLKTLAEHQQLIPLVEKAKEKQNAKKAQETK
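System: Proteasome-associated human UCH37 deubiquitinase; Input: 0.15 nM proteasome in added enzyme buffer; Also added: Ub-AMC substrate from 1 µM stock; Incubation: 30 min compound-proteasome preincubation then 25 min substrate reaction, room temperature; Detection: fluorescence, ex 355 nm, em 460 nm; Read-out: % inhibition of Ub-AMC cleavage fluorescence; Benchmarks: no-proteasome and no-compound wells.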
MLL AF4-AF9 inh: inhibitors of AF4 peptide binding to AF9, primary screen, biochemical, AlphaScreen, biotin-AF4 peptide, FLAG-AF9, single point; inhibition, % at 10 µM; AID 651704, 2012; actives 0.47% (n = 350,000);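 active = every replicate reaching a set inhibition limit, whatever the replicate mean, cut at about 25% in these data; inconclusive = mean inhibition reaches that limit but some replicates miss it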;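 note: 0% = plate neutral control median and 100% = total signal loss; the record names both 10 and 1 µM as test concentration; the first replicate is given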
FGF22 binding: binders of human FGF22 protein, primary screen, FGF22 synaptogenesis inhibitor project, biophysical, thermal shift, single point; Fibroblast growth factor 22 (Homo sapiens), Q9HCT0; recombinant FGF22 thermal shift, SYPRO orange fluorescence; percent of sucrose octasulfate shift, DMSO zero; calls only at 9.99 µM; actives 1.5% (n = 340,000); AID 651658, 2012;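 active = melting point raised past a set limit in the mean and every replicate; inconclusive = no clear call; three in four hits are not shown here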
Target sequence (Q9HCT0 whole entry, looked up): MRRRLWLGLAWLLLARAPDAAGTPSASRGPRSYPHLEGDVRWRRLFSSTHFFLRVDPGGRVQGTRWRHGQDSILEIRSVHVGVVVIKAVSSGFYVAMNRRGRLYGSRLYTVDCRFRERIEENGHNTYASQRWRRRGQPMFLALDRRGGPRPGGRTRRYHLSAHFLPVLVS
HNF4A DNA FP: change in binding of human HNF4A to DNA, primary screen, biochemical, fluorescence polarization, FITC-DNA. Hepatocyte nuclear factor 4-alpha (Homo sapiens), P41235. 1 h. activity change, % at 10 µM. actives 0.3% (n = 360,000). AID 1224865, 2016; in the data active = activity change above about 30%, passing the limit was not always enough;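 note: controls were the assay level and a saturating level of protein; the project sought stronger binding though the title names inhibitors; some compounds called inactive have numbers as strong as hits; positive values seem to mean higher polarization but the record does not say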
Target sequence (P41235 whole entry, looked up): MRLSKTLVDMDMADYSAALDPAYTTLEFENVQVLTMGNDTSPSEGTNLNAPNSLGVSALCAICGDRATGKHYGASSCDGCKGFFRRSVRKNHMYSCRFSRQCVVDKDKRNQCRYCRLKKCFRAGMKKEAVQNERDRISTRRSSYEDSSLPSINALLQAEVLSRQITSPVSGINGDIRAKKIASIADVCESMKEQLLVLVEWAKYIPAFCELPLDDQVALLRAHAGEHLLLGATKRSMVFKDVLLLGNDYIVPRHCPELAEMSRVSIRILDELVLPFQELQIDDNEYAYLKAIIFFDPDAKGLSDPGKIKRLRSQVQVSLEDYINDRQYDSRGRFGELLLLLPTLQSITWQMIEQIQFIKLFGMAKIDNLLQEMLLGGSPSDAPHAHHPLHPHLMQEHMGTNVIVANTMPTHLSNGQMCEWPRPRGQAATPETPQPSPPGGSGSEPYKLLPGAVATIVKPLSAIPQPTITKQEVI
The depositor's hits bear a star; i = inactive; ? = inconclusive; nt = not tested or not shown; & = joins results of further samples. A portion of the library, so the mix of outcomes need not match the whole.

SMILES	E coli growth	Vif A3G	RanGTP-Imp inh	UCH37 inh	MLL AF4-AF9 inh	FGF22 binding	HNF4A DNA FP
Cc1ccc(S(=O)(=O)N2C=CC(C(F)(F)F)=NCC2)cc1	0.67	1%	1.0	2.2	nt	nt	3.7
COC(=O)c1cscc1S(=O)(=O)Cc1ccccc1	0.65	2%	2.8	0.9	-3.6	i	2.2
CSc1ccccc1-c1n[nH]c(=S)o1	0.68	-136%	3.4	-6.6	-1.1	i	1.0
O=C1CCC(=O)N1CC(O)COc1ccccc1 (centres undefined)	0.63	3%	7.3	0.2	-4.1	i	-2.1
O=C(OCC#CCSc1nnc(-c2cccc3ccccc23)o1)c1cc2ccccc2o1	0.72	nt	nt	-0.2	21	i	-2.1
CCn1nc(NS(=O)(=O)c2ccc(C)cc2)c2cc3ccccc3nc21	0.69	nt	2.3	1.6	3.4	i	15
O=C(Nc1cccc(S(=O)(=O)N2CCCCC2)c1)c1ccco1	0.66	nt	nt	4.3	0.6	i	3.0
CCC(Cc1ccccc1)NC(=O)C1CCN(c2nn3c(=O)cc(C)nc3s2)CC1 (centres undefined)	0.7	nt	-2.6	2.1	1.1	i	6.8
O=C(Nc1cccc(F)c1)/C(=C\c1ccco1)NC(=O)c1ccco1	0.68	nt	0.8	9.0	1.7	i	13
O=C(Nc1ccccc1)c1nnn(Cc2ccccc2)c1NC(=O)C(F)(F)F	0.66	-2%	3.1	0.8	nt	nt	3.4
CN1CCN(CC(=O)Nc2cc(N3CCOCC3)ccc2[N+](=O)[O-])CC1	0.62	nt	-2.9	8.9	0.2	i	0.1
S=C(NCc1ccco1)N1CCN(Cc2ccco2)CC1	0.7	0%	-1.6	4.5	nt	nt	-0.3
CCOC(=O)c1cccc(NC(=O)COC)c1	0.75	-1%	-3.0	3.3	nt	nt	4.9
CN(C)C(CNc1ccc(C(F)(F)F)cn1)c1ccccc1 (centres undefined)	0.68	nt	4.6	1.0	-4.5	i	1.3
CCCOc1ccc(C2=NNC(=O)CC2)cc1	0.69	nt	3.3	3.9	-3.5	i	4.2
Cc1ccc(Cl)cc1NC(=O)CNC(=O)N1CC(=O)Nc2ccccc21	0.7	-2%	7.4	4.9	-6.7	i	2.0
Cc1ccc2nc(NC(=O)C3CCCN3C(=O)OC(C)(C)C)sc2c1 (centres undefined)	0.69	4%	-2.4	1.8	0.5	i	-5.7
CCOC(=O)c1c(NC(=O)COC(=O)CCOc2ccccc2C)sc(C(=O)NC)c1C	0.67	-15%	4.3	4.8	-16	i	0.5
CC(=O)Nc1ccc(S(=O)(=O)Nc2nc3ccccc3nc2Nc2ccc(S(N)(=O)=O)cc2)cc1	0.68	24%	7.7	-13	nt	nt	2.7
OC(C#CCN1CCOCC1)c1cccs1 (centres undefined)	0.7	2%	1.4	2.9	nt	nt	-0.5
C#C[C@]1(O)CC[C@H]2[C@@H]3CCc4cc(OC5CCCC5)ccc4[C@H]3CC[C@@]21C	nt	-4%	3.1	2.1	4.6	i	-1.5
O=C(CCn1c(=O)c2ccccc2n(Cc2ccccc2)c1=O)NC1CCN(Cc2ccccc2)CC1	0.72	1%	?	4.4	?	i	-0.5
Cc1ccc(NC2CCCN(C(=O)CCc3scnc3C)C2)cc1C (centres undefined)	0.7	2%	?	5.6	3.2	i	-4.2
Cc1c(C(=O)N2CCN(S(=O)(=O)c3ccccc3)CC2)oc2ccccc12	0.67	-7%	nt	-2.3	-3.0	i	1.4
COc1ccccc1CNC(=O)c1ccc(OCc2c(C)noc2C)c(OC)c1	0.74	?	-0.7	3.3	nt	nt	2.8
COc1cccc(C=NNC(=S)NN=Cc2cccc(OC)c2OC)c1OC	0.66	1%	nt	4.7	1.5	i	0.2
CC(C)CC1=NN2C(=N)/C(=C\c3coc4ccccc4c3=O)C(=O)N=C2S1	0.74	nt	-28	-7.3	nt	nt	27
CC(C)CC(C(=O)N1CCc2ccccc2C1)N1C(=O)c2ccccc2C1=O (centres undefined)	0.76	6%	3.0	0.9	nt	nt	0.0
CC(C)n1c(SCC(=O)NC2CC2)nnc1C1CC1	0.73	-7%	1.4	0.4	-3.3	i	-5.2
Nc1nc(NCC2CCCO2)nc(Nc2cccc(Cl)c2)c1[N+](=O)[O-] (centres undefined)	0.68	2%	3.4	8.4	-1.4	i	-2.7
O=C(CN(C(=O)Cn1nnc(-c2cccs2)n1)c1ccc2c(c1)OCCO2)NCc1ccccc1	0.7	8%	0.1	-1.4	nt	nt	-2.7
CCS(=O)c1ccccc1C(=O)O (centres undefined)	0.69	0%	2.2	3.9	nt	nt	-0.9
Oc1ccccc1N1CCN(C(=S)NCCc2ccccc2)CC1	0.69	27%	-0.6	-1.0	nt	nt	-0.4
NC(=O)C1=C[C@H](c2csc3ccccc23)C[C@H](OCCCCO)O1	0.81	12%	1.3	0.8	0.4	i	7.5
C#CCOCCOCCOCCNc1nc(N2CCN(C(=O)[C@H](CCCCN)n3cc(CN)nn3)CC2)nc(N2CCN(C(=O)[C@H](CCCN=C(N)N)n3cc(C(N)[C@H](C)CC)nn3)CC2)n1 (some centres undefined)	nt	nt	nt	1.8	45*	i	17
CCOC(=O)C1(Cc2ccccc2)CCCN(C(=O)COc2ccccc2OC)C1 (centres undefined)	nt	-3%	nt	nt	2.1	i	1.3
Cc1ccc(-c2nc3cccnc3s2)cc1NS(=O)(=O)c1ccc2c(c1)OCCO2	0.77	-78%	5.6	-10	-14	i	-1.2
COc1ccc(/C=C/C(=O)Nc2ccc(OC)cc2[N+](=O)[O-])cc1	0.72	?	-6.7	-4.2	nt	nt	11
CC(=O)N1CCc2[nH]c3ccccc3c2C1	0.61	4%	38*	1.4	nt	nt	-0.5
Cc1cc(C(C)(C)C)oc1C(=O)Nc1ccc(CC(=O)O)cc1	0.72	21%	2.7	1.6	nt	nt	1.6
O=C(NCc1cccnc1)c1ccccc1-c1ccccc1	0.64	5%	-1.2	-0.4	0.7	i	2.5
CC(C)(C)C(=O)Nc1ccccc1C(=O)Nc1ccncc1	0.75	4%	3.9	0.3	nt	nt	-1.8
COC(=O)Cc1cc(C)cc2c(=O)cc(-c3ccoc3)oc12	0.62	nt	4.0	-4.3	2.8	i	91
O=C(O)c1cccc(NC(=O)C2C3C=CC(C3)C2C(=O)OCC(F)(F)C(F)F)c1 (centres undefined)	0.74	3%&1%	-2.3	-0.5	nt	nt	-0.7
COc1ccc(CC(=O)NCC2CCCN(Cc3cccc(SC)c3)C2)cc1 (centres undefined)	nt	-5%	2.9	nt	-0.4	i	2.6
COC(=O)c1c(-c2ccc(OC)cc2)sc2ccc(OC)cc12	0.68	nt	nt	2.3	-1.4	i	-3.7
CC(=O)N1N=C(c2ccco2)CC1c1cc2ccc(C)cc2nc1Cl (centres undefined)	0.71	-15%	?	2.9	-1.2	i	1.2
COc1ccc(C(CC(=O)O)NC(=O)c2cccs2)cc1 (centres undefined)	0.66	-2%	?	2.0	nt	nt	3.9
COC(=O)c1ccc(CSCC(=O)Nc2ccccc2)cc1	0.66	5%	-3.3	4.1	-2.3	i	-0.6
COc1cc(CCC(=O)Nc2cc(Cl)ccc2N2CCN(C)CC2)cc(OC)c1OC	0.69	?	0.1	0.2	nt	nt	-0.1
CSc1ccccc1NC(=O)CSc1nnc(Cc2ccccc2)o1	0.65	nt	-4.8	6.0	0.6	i	-1.2
Clc1ccc(CN(Cc2ccccc2)C(c2cccs2)c2nnnn2C2CCCC2)cc1 (centres undefined)	0.75	-9%	-4.4	4.1	nt	nt	-1.7
Cc1ccc(S(=O)(=O)NCC(=O)OCc2csc(-c3ccccc3)n2)cc1	0.66	-5%	-0.5	-1.0	nt	nt	-1.2
CN(C)CCOc1cccc(Cl)c1	0.66	3%	0.6	1.7	nt	nt	-0.5
CC(C)CN1C(=O)c2ccc(NC(=O)c3ccccc3F)cc2C1=O	0.7	0%	2.6	-46	nt	nt	-0.5
Cc1cc(/C=C\c2nc(O)c([N+](=O)[O-])c(=O)[nH]2)c(C)n1-c1ccccc1	0.71	nt	5.6	13	1.1	i	-15
COc1ccc(NC(=O)COC(=O)CNS(=O)(=O)c2ccccc2)cc1OC	0.65	7%	1.0	-0.8	0.0	i	-0.2
CC1CN(C2=NC(=O)/C(=C3/C(=O)N(Cc4ccc(F)cc4)c4ccccc43)S2)CC(C)O1 (centres undefined)	0.68	-10%	1.6	7.2	4.7	i	-0.6
CCOC(=O)Cn1cc(C(=O)C(C)(C)C)c2ccccc21	0.67	6%	nt	-1.9	-2.7	i	-2.8
COc1ccc(N(C)C(=O)c2ccc3nc(-c4ccccc4)c(-c4ccccc4)nc3c2)cc1	0.77	8%&4%	6.5	1.9	nt	nt	-2.0

As entered above:
RanGTP-Imp inh result of CCn1nc(NS(=O)(=O)c2ccc(C)cc2)c2cc3ccccc3nc21 : 2.3
MLL AF4-AF9 inh result of COc1cccc(C=NNC(=S)NN=Cc2cccc(OC)c2OC)c1OC : 1.5
MLL AF4-AF9 inh result of CSc1ccccc1NC(=O)CSc1nnc(Cc2ccccc2)o1 : 0.6

Following part.
SMILES	E coli growth	Vif A3G	RanGTP-Imp inh	UCH37 inh	MLL AF4-AF9 inh	FGF22 binding	HNF4A DNA FP
CC(C)CN(C(=O)COC(=O)CNC(=O)c1sc2ccccc2c1Cl)C1CCS(=O)(=O)C1 (centres undefined)	0.71	-8%	1.1	3.6	-13	i	1.7
O=C(Nc1nnc(COc2ccc(Cl)cc2)s1)c1ccc([N+](=O)[O-])cc1	0.79	2%	1.1	2.0	nt	nt	-0.7
O=C(Nc1cccc(Cl)c1)N1CCCC1	0.64	27%	-1.0	4.7	nt	nt	-3.9
Cc1ccc(/C=N/NC(=O)c2nnn(-c3nonc3N)c2C)o1	nt	nt	nt	nt	-2.0	i	1.0
O=C(Nc1cnn(Cc2ccc(Cl)c(Cl)c2)c1)c1nc2ncccn2n1	0.73	73%	2.5	-2.1	nt	nt	-1.0
CC(=O)c1c(C)nc2ccccn12	0.6	-8%	6.5	3.3	-4.9	i	-1.0
O=C(CNC(=O)c1ccc(Cl)c([N+](=O)[O-])c1)OCN1C(=O)c2ccccc2C1=O	0.73	0%	-0.9	-1.1	-12	i	3.2
Cc1cc(NC(=O)Nc2ccc(F)cc2F)n(C)n1	0.68	0%	5.4	2.3	-8.1	i	-3.2
Cc1c(NC(=O)c2ccc(N3CCCC3)c([N+](=O)[O-])c2)cccc1-c1nc2ccccc2s1	0.74	3%	-0.2	6.3	-55	i	-2.9
O=C(O)c1ccccc1C(c1ccccc1)c1ccccc1O (centres undefined)	0.74	-11%	nt	3.7	-0.6	i	-7.5
CC1CCCC(C)N1/N=C/c1cc(Br)c(O)c(Br)c1 (centres undefined)	nt	15%	5.5	nt	-11	i	nt
CCN(CC)CCOC(=O)c1c(C)oc2ccc(OC)cc12	0.71	26%	1.1	3.2	nt	nt	3.4

Fetched by structure from the entries so far (two):
SMILES	E coli growth	Vif A3G	RanGTP-Imp inh	UCH37 inh	MLL AF4-AF9 inh	FGF22 binding	HNF4A DNA FP
O=C(Nc1cnn(Cc2ccc(Cl)c(Cl)c2)c1)c1nc2ncccn2n1	0.73	73%	2.5	-2.1	nt	nt	-1.0
CCN(CC)CCOC(=O)c1c(C)oc2ccc(OC)cc12	0.71	26%	1.1	3.2	nt	nt	3.4

High-throughput results from PubChem.
